PABP FP inh – PABP poly(A) RNA binding inhibitors, primary screen, biochemical, fluorescence polarization, uHTS; hit rate 1% among 290,000; AID 2014, 2009; Polyadenylate-binding protein 1 (Homo sapiens), P11940; inhibition, % at 35 µM;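 active = 50% or more with normal probe brightness, or confirmed in later tests; about a fifth of its hits are not listed in these tables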;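 also: calls also rest on retests at 20 µM and on dose response follow-up; controls were probe without protein and protein plus probe with vehicle; some compounds called inactive have numbers as strong as hits; many hits fall short of the cut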
Yeast UUG start – modulators of yeast start codon fidelity, primary screen, whole organism, S. cerevisiae, single point, plate reader | S. cerevisiae UUG-firefly luciferase reporter, luminescence/redox ratio | activity score, % at 18.7 µM | hit rate 0.13% among 350,000 | AID 602363, 2012;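 active = replicate mean at a twofold rise or more, about +100% in these data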;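 also: firefly luciferase made from a UUG start codon reports start codon fidelity; reporter light over untreated wells divided by growth signal over untreated wells; some hits fall short of that in this replicate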
CSC inhib – cancer stem cell viability inhibitors, primary screen, luminescence; cancer stem cell-like cells viability; inhibition, % at 7.5 µM; hit rate 1.1% among 300,000;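 active = mean at 75% or more and at least half the replicates too; tested in HMLE shEcad cells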;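 also: 0% = median of negative and 100% = median of positive control wells; the first replicate is given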
MT1-MMP act inh – blockers of MT1-MMP proenzyme processing, primary screen, HT1080 RFP-PRO-GFP cells, GFP/RFP fluorescence; Matrix metalloproteinase-14 (Homo sapiens), P50281; GFP/RFP ratio fluorescence, overnight; percent of plate control window, DMSO zero; GFP/RFP ratio change, % at 20 µM; hit rate 0.061% among 360,000; AID 651647, 2012;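 active = GFP/RFP ratio change of at least 30% with cell ATP level not reduced by more than half and red fluorescence within 50% of control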; also: strong numbers were not always called active
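Assay system – RFP-PRO-GFP reporter HT1080 cells · Compound dosing – single dose of 20 µM compound, 1% DMSO final · Incubation – overnight compound exposure at 37 °C · Measure – GFP/RFP fluorescence ratio · Benchmarks – DMSO wells and RFP-L50D-GFP cells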
Env fusion inh – inhibitors of HIV-1 Env-driven cell-cell fusion, primary screen, HeLa-JRFL effector, CEM21 target cells, luciferase | inhibition, % at 12.3 µM | hit rate 1.1% among 360,000;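 active = mean replicate inhibition score of at least 50 and every replicate individually at or above 50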;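 also: 0% = plate neutral controls and 100% = maraviroc near 300 nM; one replicate is shown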
Rce1 inh – yeast Rce1p protease inhibitors, primary screen, biochemical, fluorescence, cell-free homogeneous. CAAX prenyl protease 2 (Saccharomyces cerevisiae (strain ATCC 204508 / S288c)), Q03530. yeast membranes, quenched prenylated peptide cleavage fluorescence. calls only. hit rate 0.27% among 290,000. AID 2563, 2010;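 active = fall in fluorescence gain of 50% or more versus controls, with final raw signal at or below 3038400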;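 also: plate controls were neutral control wells for no effect and wells lacking membranes for full effect; tested at 10 µM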
Target sequence (Q03530 whole entry, looked up): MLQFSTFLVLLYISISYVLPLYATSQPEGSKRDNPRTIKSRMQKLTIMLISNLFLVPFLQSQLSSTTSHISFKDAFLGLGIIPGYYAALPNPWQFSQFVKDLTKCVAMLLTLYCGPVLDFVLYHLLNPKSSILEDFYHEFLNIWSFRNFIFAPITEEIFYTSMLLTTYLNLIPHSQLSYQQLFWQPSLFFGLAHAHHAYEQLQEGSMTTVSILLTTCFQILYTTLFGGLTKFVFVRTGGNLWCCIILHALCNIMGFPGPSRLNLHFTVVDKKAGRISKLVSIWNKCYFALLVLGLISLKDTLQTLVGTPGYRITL
eIF4H inh – human eIF4H binding inhibitors, primary screen, translation initiation inhibitor project, biochemical, uHTS, fluorescence polarization. hit rate 0.94% among 290,000. AID 2012, 2009. inhibition, % at 35 µM. eIF4H fluorescence polarization binding assay. Eukaryotic translation initiation factor 4H (Homo sapiens), Q15056;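 active = 50% or more with normal probe brightness, or confirmed in later tests; about a fifth of its hits are not listed in these tables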;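 also: calls also rest on retests at 20 µM and on dose response follow-up; 0% = protein and probe with vehicle and 100% = probe without protein; strong numbers were not always called active; many hits fall short of the cut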
MT1-MMP act inh RFP – recorded beside MT1-MMP act inh, whose call it bears; RFP signal change, %; measured here: RFP expression control read;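 0 = vehicle wells; hits needed this value within 50% of zero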
Active calls of the source: *; i = inactive; · = no result given. Some of the compounds tested. The share of hits here may be higher or lower than overall.

SMILES | PABP FP inh | Yeast UUG start | CSC inhib | MT1-MMP act inh | MT1-MMP act inh RFP | Env fusion inh | Rce1 inh | eIF4H inh
NC(=S)c1cnn2c(-c3cccc(C(F)(F)F)c3)ccnc12 | 2 | -19 | 6 | 7 | 5 | -10 | i | -4
Cc1cc(NC(=O)CCC(=O)N(Cc2ccc(F)cc2)C(C(=O)NC2CCCC2)c2ccco2)no1 (stereo unspecified) | 6 | -17 | 3 | 3 | 1 | 11 | i | -6
CCN(CC)c1nc2ccccc2nc1-n1nc(C)cc1C | 1 | -14 | · | -9 | -4 | -9 | i | 4
Cc1nc(-c2ccc(F)cc2)c(CC(=O)N(C)CC(=O)Nc2c(C)cccc2C)s1 | · | -11 | · | 0 | 1 | -2 | · | ·
Cc1ccccc1C(=O)NC(=S)N(C)C1CCCCC1 | 6 | -24 | -2 | 6 | 6 | -5 | i | -4
Cc1ccc(C(=O)CCC(=O)N2CCC(C(N)=O)CC2)cc1 | 15 | · | -6 | -3 | 4 | -22 | i | 2
Cc1ccc(Cn2nnc3c(=O)[nH]c(C4CCN(S(=O)(=O)c5cc(C)ccc5C)CC4)nc32)cc1 | 0 | -5 | 22 | 8 | 6 | · | i | -7
NC12CCc3c(no[n+]3[O-])C1(O)CC(c1ccccc1)=[N+]2[O-] (stereo unspecified) | 18 | -11 | 5 | 1 | 1 | · | i | 2
Cc1ccc(S(=O)(=O)N2CCN(C(=O)c3ccccc3Cc3ccccc3)CC2)c(C)c1 | -5 | 2 | -12 | -3 | -2 | · | i | -17
COc1ccc(-c2ccc(C)cc2)cc1[C@H]1[C@@H]2C=CCC[C@@]2(C)C(=O)N1Cc1ccccc1 | 6 | -18 | 115* | -5 | -9 | 30 | i | -3
C=CCc1ccc(OCC(O)CN2CCC(Cc3ccccc3)CC2)c(OC)c1 (stereo unspecified) | 8 | -3 | 1 | 3 | -1 | · | i | -7
CC(C)C(=O)Nc1ccc(Cl)cc1-c1nc2ccccc2[nH]c1=O | 0 | -7 | -12 | -3 | 0 | 4 | i | 4
Nc1nc(-c2ccc(-n3nncc3-c3ccco3)cc2)cs1 | -3 | · | -18 | · | · | · | i | 2
Cc1c(C(=O)NC2CCCc3ccccc32)oc2ccccc12 (stereo unspecified) | 4 | -12 | -11 | -13 | -7 | 28 | i | 9
COc1ccc2[nH]c(C(=O)N/N=C/c3ccc(O)cc3O)cc2c1 | 1 | -17 | 100* | -10 | -12 | -43 | i | 14
Cc1ccc(Cl)cc1N1CCN(C(=O)C2CCN(S(=O)(=O)c3cnc[nH]3)CC2)CC1 | 1 | -16 | -1 | 0 | -2 | · | · | -7
CN1CCN(CC#CCC2(O)c3ccccc3-c3ccccc32)CC1 | -10 | · | 0 | -2 | 1 | -3 | i | -2
O=C(CCNS(=O)(=O)c1cccs1)NC1CCN(Cc2ccccc2)CC1 | 1 | · | -15 | 0 | 6 | -2 | i | 4
Fc1ccccc1-c1nc2c(s1)CCc1onc(-c3ccc(Br)cc3)c1-2 | · | -9 | 7 | 0 | 0 | 3 | i | ·
Cc1ccc(NC(=O)C2CCN(S(=O)(=O)c3ccc4[nH]c(=O)oc4c3)CC2)cc1F | 3 | -14 | -3 | 3 | -2 | 2 | i | 7
O=Cc1cn(-c2ccccc2)nc1-c1ccncc1 | 0 | -13 | 18 | -1 | -5 | -23 | i | 2
CCN(CC)c1ccc(NC(=O)C2=CCN(S(=O)(=O)c3ccc(F)cc3)CC2)c(C)c1 | 16 | 1 | 19 | -3 | -6 | -15 | i | 0
Nc1nonc1-c1nc2ccccc2n1Cc1ccccc1 | -1 | -6 | · | 3 | -7 | -24 | · | -4
CC1CCCCC12NC(=O)N(CC(=O)NCC(=O)Nc1ccc(F)c(F)c1F)C2=O (stereo unspecified) | · | -15 | 7 | -1 | 0 | · | · | ·
C=CCn1c(Cc2cccs2)nnc1SCC(=O)Nc1cc(OC)cc(OC)c1 | 2 | -10 | -18 | -1 | -3 | 3 | i | -3
CC(C)(C)OC(=O)N1CCCC(C(=O)Nc2cccc(C(=O)NCCc3ccccc3)c2)C1 (stereo unspecified) | · | 1 | · | 8 | 0 | -7 | · | ·
COC(=O)c1ccc(NC(=O)c2cn(-c3cccc(C)n3)cn2)cc1 | -9 | -12 | · | -3 | 3 | · | · | -4
COc1ccc(N2CCN(C(C)C(=O)Nc3nnc(C)s3)CC2)cc1 (stereo unspecified) | -4 | · | 6 | 5 | 3 | -12 | i | -3
c1ccc(COc2ccc(OCCOCCn3cncn3)cc2)cc1 | -14 | -28 | 2 | 5 | 1 | -90 | i | -6
O=C(Cn1[nH]c(=O)c2ccccc2c1=O)NCC1COc2ccccc2O1 (stereo unspecified) | · | 1 | · | 0 | 3 | 5 | · | ·
O=C(Cn1c(=O)n(-c2cccc(C(F)(F)F)c2)c(=O)c2sccc21)NCC1CCCO1 (stereo unspecified) | 14 | -14 | -1 | 0 | 1 | -8 | i | -3
COc1ccccc1CNC(=O)[C@@H]1CCCN1C(=O)C1CCN(S(=O)(=O)c2ccc(C)cc2)CC1 | -9 | -3 | -10 | 1 | -1 | 36 | i | 41
NS(=O)(=O)c1ccc(Cc2ncc(C(F)(F)F)cc2Cl)s1 | -2 | -3 | -18 | -1 | 1 | -32 | i | -13
CN(C)/C=C(/C(=O)c1ccc(Cl)cc1Cl)S(=O)(=O)c1ccc(Cl)cc1 | 3 | -7 | -4 | 1 | 2 | -40 | i | -6
Cc1cc(C)nc(/N=C(\N)Nc2ccc(C(C)C)cc2)n1 | -4 | -18 | 30 | 2 | -13 | -17 | i | -3
CN(C)c1ccc(/C=C/CNC[C@H]2O[C@@H](n3ccc(N)nc3=O)[C@H](O)[C@@H]2O)cc1 | · | -7 | · | 1 | 6 | -49 | · | ·
O=C(NN=C1CCC(c2ccccc2)CC1)c1cc2c(s1)CCCC2 (stereo unspecified) | 14 | -17 | 5 | -3 | 8 | 15 | i | -1
c1cc(-c2ccc3c(c2)CCO3)n2cnnc2c1 | · | -16 | · | 2 | 2 | -6 | · | ·
CC(NC(=O)COC(=O)CNC(=O)c1ccc(-c2ccccc2)cc1)c1ccccc1 (stereo unspecified) | · | · | 5 | 4 | -1 | 5 | i | ·
CC1(C)C2CCC1(CS(=O)(=O)NC(CC(=O)O)c1cccc(Br)c1)C(=O)C2 (stereo unspecified) | 0 | 0 | -9 | 5 | 6 | 1 | i | -11
Cc1nnc(Nc2ccc(Cl)cc2)s1 | 12 | · | -5 | 2 | 0 | 5 | i | 11
Cc1ccc2c(c1)N(CC(=O)NCCCN1CCN(C)CC1)C(=O)CO2 | -7 | -3 | · | -1 | -3 | -6 | i | -8
Cc1ccc(Oc2ncc(CN3CCOCC3)s2)cc1 | -3 | -15 | 12 | 5 | 0 | -19 | i | -2
CCN1C(=O)/C(=C\c2nc3ccccc3c(=O)n2CC)c2ccccc21 | -1 | · | · | -3 | -1 | -17 | i | -18
O=C(Cn1cc(C(=O)c2ccco2)c2ccccc21)Nc1ccccc1F | -2 | · | -2 | 0 | -8 | -13 | i | -13
CCN(CC)CCOC(=O)c1cccc(Br)c1 | 23 | -17 | -10 | 2 | -2 | · | i | -6
O=C(Cn1ccc(C(F)(F)F)n1)N=Nc1c(O)[nH]c2ccccc12 | 2 | · | -7 | 2 | 4 | 6 | i | -1
O=C(N/N=C/c1ccc([N+](=O)[O-])cc1)c1cc(C2CC2)[nH]n1 | -2 | -18 | 10 | 3 | 0 | 15 | i | -1
CN(CC(=O)Nc1cc(C(F)(F)F)ccc1-n1cncn1)Cc1ccccc1N1CCOCC1 | · | -15 | · | -2 | -2 | 29 | · | ·
COc1ccc(CN2CCn3ncc(C(=O)Nc4ccccc4)c3C2=O)cc1 | 5 | · | -8 | 4 | 0 | · | i | 3
COc1ccc(CN(C)C(=O)CCC(=O)N2CCN(S(=O)(=O)c3ccc(Cl)cc3)CC2)c(OC)c1 | · | 2 | · | -5 | -27 | 14 | · | ·
CCc1ccc(N2CC(C(=O)Nc3nc4ccc(S(C)(=O)=O)cc4s3)CC2=O)cc1 (stereo unspecified) | -1 | 9 | -22 | -5 | -2 | -4 | i | 3
CCN1CCCC1CNS(=O)(=O)c1ccc(Br)cc1 (stereo unspecified) | -3 | -6 | -1 | -4 | 3 | 4 | i | 2
COc1ccc(OCCN2C(=O)NC3(CCc4ccccc4C3)C2=O)cc1 (stereo unspecified) | 5 | · | 5 | 4 | 8 | 16 | i | 1
COCCNC(=S)N/N=C(\C)c1ccccc1O | 2 | -30 | -5 | 7 | 3 | -4 | i | 6
O=S(=O)(c1cc(Cl)sc1Cl)N1CCCC1 | 0 | · | -1 | 2 | -1 | 19 | i | -5
Cc1ccccc1CCNC(=O)C1CC(O)CN1C(=O)Nc1ccccc1 (stereo unspecified) | 1 | -6 | -8 | -2 | -1 | 5 | · | -2
Cc1nc2ccccc2nc(C)c1=NOCc1cccc(Cl)c1 | 2 | -16 | 0 | 1 | -6 | 69* | i | -5
CCOC(=O)/C=c1\s/c(=C\c2c(OCC)ccc3ccccc23)c(=O)n1CC(=O)NCC1CCCO1 (stereo unspecified) | 18 | · | 39 | -21 | -15 | · | i | 16
CCOc1ccc(-c2c(=O)n(OCc3nc4ccccc4[nH]3)c3ccccc3[n+]2[O-])cc1 | -2 | · | -1 | 1 | -1 | -14 | i | -4
Following part:
SMILES | PABP FP inh | Yeast UUG start | CSC inhib | MT1-MMP act inh | MT1-MMP act inh RFP | Env fusion inh | Rce1 inh | eIF4H inh
Cc1cccc(C)c1NC(=O)COn1nnc2ccc(C(F)(F)F)cc21 | 4 | · | -18 | 0 | 3 | 8 | i | 4
O=C(CC12CC3CC(CC(C3)C1)C2)NCC(=O)N1CCCC1 | -4 | -8 | 0 | 0 | -4 | · | i | -5
O=C(NCc1ccco1)c1cc(-c2ccccc2)nn1CC1CC(c2cccc([N+](=O)[O-])c2)=NO1 (stereo unspecified) | · | -12 | · | 4 | -3 | 1 | · | ·
CC(=O)N1CCN(C(=S)Nc2ccc(SC(F)F)cc2)CC1 | -4 | -19 | -8 | 1 | -4 | -19 | i | 3
CCOC(=O)c1sc2nc(N3CCOCC3)c3c(c2c1N)CC(C)(C)N(C)C3 | -6 | -7 | -11 | -9 | -12 | -14 | i | -3
Nn1c(SCC(=O)Nc2ccc3c(c2)OCCO3)nnc1-c1cccnc1 | -8 | -15 | -5 | 2 | 5 | 1 | i | 4
Cc1cccnc1C(NC(=O)C1CCN(CCCOc2ccccc2)CC1)c1ccc(F)cc1 (stereo unspecified) | · | 4 | · | 2 | 2 | 2 | · | ·
O=C(Nc1cccc(S(=O)(=O)N2CCCCC2)c1)c1cccs1 | 6 | -8 | -1 | 4 | -5 | 16 | i | -7

4 records picked at random from the list so far, as already listed:
SMILES | PABP FP inh | Yeast UUG start | CSC inhib | MT1-MMP act inh | MT1-MMP act inh RFP | Env fusion inh | Rce1 inh | eIF4H inh
Cc1cccc(C)c1NC(=O)COn1nnc2ccc(C(F)(F)F)cc21 | 4 | · | -18 | 0 | 3 | 8 | i | 4
O=C(CC12CC3CC(CC(C3)C1)C2)NCC(=O)N1CCCC1 | -4 | -8 | 0 | 0 | -4 | · | i | -5
O=C(NCc1ccco1)c1cc(-c2ccccc2)nn1CC1CC(c2cccc([N+](=O)[O-])c2)=NO1 (stereo unspecified) | · | -12 | · | 4 | -3 | 1 | · | ·
CC(=O)N1CCN(C(=S)Nc2ccc(SC(F)F)cc2)CC1 | -4 | -19 | -8 | 1 | -4 | -19 | i | 3

High-throughput results: PubChem BioAssay, several laboratories
